Sa growth 42C – S. aureus growth inhibition; relative growth, % (test concentration not listed); S. aureus RN4220 growth, OD600, 20 h, 42 °C; stronger effect = lower value; actives 0.53% (n = 170,000); AID 720641;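 active = growth at 42 °C up to 50% and 20 or more points under that at 30 °C, or under 10% at both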;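 also: 300 nL library stock went into each well; scaled to the means of positive and negative controls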
HCMV UL50-53 inh – cytomegalovirus nuclear egress complex inhibition. AID 1918969. HTRF UL50-UL53 interaction, normalized percent inhibition. actives 0.15% (n = 190,000). inhibition, % (test concentration not listed);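 active = both replicates at 50% or more, plus weaker picks with an unusually low signal ratio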;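 also: stock transfer was 100 nL into about 20 µL; 0% = negative control wells and 100% = wells with untagged competitor protein; inactives centre near -12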
GIV-Gai inh – blocks GIV peptide binding to rat Galpha-i3 | Galpha-i3/FITC-GIV peptide fluorescence polarization, 90 min; stronger effect = lower value; scaled: aluminum fluoride 0%, vehicle 100% | percent of control (FP), % (concentration not given with the values) | actives 0.42% (n = 210,000) | AID 1224905;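 active = replicate mean at 85% of control or lower, very high polarization wells dropped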;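 also: wells of about 15 µL received 100 nL stock; the first replicate is given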
Target sequence (P08753 whole entry, looked up): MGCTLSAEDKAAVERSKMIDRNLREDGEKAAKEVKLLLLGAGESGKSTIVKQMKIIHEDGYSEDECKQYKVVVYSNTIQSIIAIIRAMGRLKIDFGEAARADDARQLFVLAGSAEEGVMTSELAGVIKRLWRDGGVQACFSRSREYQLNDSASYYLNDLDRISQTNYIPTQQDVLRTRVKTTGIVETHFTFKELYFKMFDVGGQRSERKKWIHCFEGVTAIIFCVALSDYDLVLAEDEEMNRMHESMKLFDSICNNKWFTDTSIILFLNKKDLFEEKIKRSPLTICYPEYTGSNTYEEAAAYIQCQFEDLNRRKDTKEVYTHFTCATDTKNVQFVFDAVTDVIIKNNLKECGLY
Sa growth 42C second temp – further read-out of Sa growth 42C, marked with its call; relative growth, %; measured here: growth at 30 °C;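 optical density after 20 h as mean of two plates; 100% = untreated growth and lower means inhibition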
The depositor's hits bear a star; . = not tested or not shown; & = joins results of further samples.

1: O=C(O)CCC1=NNC(=O)CC1
2: O=c1[nH]c2cc3c(cc2c(=O)n1CCCc1nc(-c2ccc(Br)cc2)no1)OCO3
3: O=C(Nc1ccc(Cl)cc1)c1cc2ncc(Br)cn2n1
4: CCCCNC(=O)CN1CCN(Cc2cccc(OCC)c2OC)CC1
5: Cc1cccc(C(=O)N(Cc2ccco2)Cc2ccccc2F)c1
6: Cc1ccc(N2CC(c3nnc(Cc4ccc(F)cc4Cl)o3)CC2=O)cc1 (centres undefined)
Compound,1,2,3,4,5,6
Sa growth 42C,86,.,106,78,98,99
Sa growth 42C second temp,93,.,95,90,80,37
HCMV UL50-53 inh,-18,-8,3,-26,5,10
GIV-Gai inh,104,104,109,.,106,111

7: O=C(Cn1cc(C(F)(F)F)ccc1=O)NCC1COc2ccccc2O1 (centres undefined)
8: CCn1ccc(=O)[nH]c1=O
9: Cc1[nH]c2c(C)cccc2c(=O)c1CN1CCC(C)CC1
10: CCOc1ccccc1NC(=O)N(C)CCc1c(C)nn(CC)c1C
11: Cc1oc2ccc(NS(=O)(=O)c3cccc4cccnc34)cc2c1C(=O)OC(C)C
12: C(=N\n1cnnc1)/c1ccc(OCc2ccccc2)cc1
Compound,7,8,9,10,11,12
Sa growth 42C,99,78,.,103,98,111
Sa growth 42C second temp,96,89,.,96,81,70
HCMV UL50-53 inh,-20,-34,-12,.,-31,-16
GIV-Gai inh,.,.,94,106,101,100

13: O=C(/C=C/c1cn(-c2ccccc2)nc1-c1cccs1)NCc1ccccc1
14: Cn1c(=O)n(C)c2cc(NC(=O)Nc3ccc(Cl)cc3)ccc21
15: NC(=O)C1CCN(C(=O)C2(c3cccs3)CCOCC2)CC1
16: COc1cccc2c1Oc1nc(-c3ccccc3)nc(SCC(=O)N3CCCCC3)c1C2
17: O=C(O)C1C2C=CC(C2)C1C(=O)NCc1ccncc1 (centres undefined)
18: CN(c1cc(C(F)(F)F)ccn1)N1C(=O)c2ccccc2C1=O
Compound,13,14,15,16,17,18
Sa growth 42C,107,.,103,87,102,90
Sa growth 42C second temp,93,.,101,102,96,89
HCMV UL50-53 inh,4,-27,10,-12,.,-32
GIV-Gai inh,.,101,107,112,100,102

19: CCC(C(=O)Nc1cccc(OC)c1)n1nc(-c2ccc(OC)cc2)ccc1=O (centres undefined)
20: COC(=O)Nc1c(C)nc2n(C)c3ccccc3n12
21: Cc1ccc(-c2n[nH]c(CNC(=O)NCc3ccccc3)n2)cc1
22: Oc1ccc(C=Nc2ccc(N=Cc3ccc(O)cc3)c(Cl)c2)cc1
23: Cc1cc(C(=O)CSc2ncnc3c2cnn3-c2ccccc2)c(C)n1C1CCS(=O)(=O)C1 (centres undefined)
24: CCOC(=O)c1cc(-c2ccc(S(=O)(=O)N(CC)c3cccc(C)c3)s2)on1
Compound,19,20,21,22,23,24
Sa growth 42C,87,100,86,112,70,99
Sa growth 42C second temp,89,57,77,75,46,92
HCMV UL50-53 inh,-2,.,1,-30,-33,-34
GIV-Gai inh,104,102,99,.,.,103

25: O=C(NC1CCCCCC1)c1ccc(CS(=O)(=O)Cc2ccc(F)cc2)o1
26: CC1=C(C(=O)OC2CCCC2)C(c2ccc(F)cc2F)CC(=O)N1 (centres undefined)
27: CCOC(=O)c1ccccc1NC(=O)c1nn(-c2ccc(Cl)cc2)c(=O)n(C)c1=O
28: CCN=C1NS(=O)(=O)c2ccccc21
29: COc1cccc(CNC(=O)c2cnc3sc(N4CCCC4)nn3c2=O)c1OC
30: O=C(CSc1nnc(NC2CC2)s1)NC(=O)c1ccccc1
Compound,25,26,27,28,29,30
Sa growth 42C,98,118,.,.,83,103
Sa growth 42C second temp,85,99,.,.,88,89
HCMV UL50-53 inh,2,2,-38,-16,.,-26
GIV-Gai inh,102,107,102,101,103,.

One compound at a time (already shown). Order of screens: Sa growth 42C, Sa growth 42C second temp, HCMV UL50-53 inh, GIV-Gai inh
Entry for `COc1cccc2c1Oc1nc(-c3ccccc3)nc(SCC(=O)N3CCCCC3)c1C2` = 87, 102, -12, 112
Entry for `CC1=C(C(=O)OC2CCCC2)C(c2ccc(F)cc2F)CC(=O)N1` (centres undefined) = 118, 99, 2, 107
Entry for `Cn1c(=O)n(C)c2cc(NC(=O)Nc3ccc(Cl)cc3)ccc21` = ., ., -27, 101
Entry for `O=c1[nH]c2cc3c(cc2c(=O)n1CCCc1nc(-c2ccc(Br)cc2)no1)OCO3` = ., ., -8, 104

(continued)
31: COc1cccc(-n2nnc(-c3nc(-c4ccccc4F)no3)c2C)c1
32: Cc1nc(CC(=O)N=Nc2c(O)[nH]c3ccc(F)cc23)cs1
33: COc1ccc(-c2oc3ncn4nc(-c5ccccc5Cl)nc4c3c2-c2ccc(OC)cc2)cc1
34: CCC1CCCCN1CCCNC(=O)CN1C(=O)CSc2ccc(S(=O)(=O)N3CCOCC3)cc21 (centres undefined)
35: CCn1cc(C(=O)N2CC(C)CC(C)C2)c(=O)c2cc(S(=O)(=O)N3CC(C)CC(C)C3)ccc21 (centres undefined)
36: c1ccc(-n2ncc3c(SCC4CCCCO4)ncnc32)cc1 (centres undefined)
Compound,31,32,33,34,35,36
Sa growth 42C,93,115,102,107,119,97
Sa growth 42C second temp,91,76,93,92,96,86
HCMV UL50-53 inh,.,-102,-32,.,.,-15
GIV-Gai inh,105,.,106,102,103,.

37: CCc1cc(C(=O)COc2ccc(Cl)cc2)c(O)cc1O
38: Cc1ccccc1NC(=O)COC(=O)c1ccccc1
39: CC1(C)CC(Nc2ccc(Cl)cc2)CCO1 (centres undefined)
40: CNC(=S)Nc1cc2oc3ccccc3c2cc1OC
41: NC(=O)/C(=C/c1ccc(Cl)cc1)NC(=O)c1ccccc1
42: COc1ccccc1NC(=O)c1c(C)cc(C)nc1SCC(=O)c1ccc(Cl)cc1
Compound,37,38,39,40,41,42
Sa growth 42C,68,91,96,99,100,.
Sa growth 42C second temp,82,88,95,87,85,.
HCMV UL50-53 inh,-22,-1,-17,-15,-26,-3
GIV-Gai inh,.,.,104,.,.,105

43: COc1ccc(C)cc1CN(C)c1ncnc2ccccc12
44: Cc1cc(C)c2c(-n3cccc3)nn(CCCC(=O)NCc3cccc(Cl)c3)c2n1
45: Cc1cc(C(=O)NCc2ccc(Cl)cc2)on1
46: CCOc1ccccc1NC(=O)C(CC(C)C)NS(=O)(=O)c1ccc2c(c1)oc(=O)n2C (centres undefined)
47: O=C(NCCCN1CCc2ccccc2C1)c1ccc(N2CCCC2)c(S(=O)(=O)N2CCCC2)c1
48: CCOC(=O)/C=C1\NC2(CCCC2)Cc2cc(OC)c(OC)cc21
Compound,43,44,45,46,47,48
Sa growth 42C,55,.,100,86,.,108
Sa growth 42C second temp,49,.,87,91,.,106
HCMV UL50-53 inh,-1,-20,-9,3,-15,-7
GIV-Gai inh,.,107,98,97,109,102

49: Cc1cccc(N2CCN(C(=O)c3oc(=O)c4ccccc4c3-c3ccccc3)CC2C)c1 (centres undefined)
50: CCc1ccc(C(=O)Oc2ccc(C#N)cc2)cc1
51: Cc1cccc(CC(=O)Nc2ccc3c(c2)OCCO3)c1
52: COC(=O)c1nnn(CC(=O)Nc2ccc(C(C)C)cc2)c1C(=O)OC
53: OC1(c2ccc(F)cc2)CSC(=Nc2cccnc2)N1Cc1ccco1 (centres undefined)
54: CC(C(=O)NCCN1CCOCC1)(c1ccccc1)c1ccccc1
Compound,49,50,51,52,53,54
Sa growth 42C,102,88,92,84,95,106
Sa growth 42C second temp,85,86,95,85,86,81
HCMV UL50-53 inh,-12,.,-3,-18,-15,-11
GIV-Gai inh,103,104,97,94,.,.

55: CCn1c(C(=O)O)c(CC(=O)Nc2ccccc2OC)c2ccccc21
56: COc1ccc(Nc2nnc(-c3ccc(C)c(S(N)(=O)=O)c3)c3ccccc23)cc1
57: CN(C)c1ccnc2sc3c(N(CCO)CCO)ncnc3c12
58: CSc1nsc(SC)c1C(=O)N1CCN(S(=O)(=O)c2ccc(C)cc2)C1C(C)C (centres undefined)
59: Cc1cccc(Cn2cc(C(=O)Nc3ccc(S(N)(=O)=O)cc3)ccc2=O)c1
60: CCOC(=O)c1c(-c2cccs2)csc1/N=C/c1c(O)n(C)c2ccccc12
Compound,55,56,57,58,59,60
Sa growth 42C,122,102,101,100,109,113
Sa growth 42C second temp,98,73,79,89,83,89
HCMV UL50-53 inh,8,-94,-14,4,.,.
GIV-Gai inh,99,106,98,98,101,44*

61: O=C(c1cc(C2CC2)on1)N1CCCC1c1cccc(F)c1 (centres undefined)
62: CC1CCCC(C)N1/N=C/c1ccc(O)cc1 (centres undefined)
63: Cc1nn(-c2ccccc2)c2sc(-c3noc(-c4ccc5c(c4)OCO5)n3)cc12
64: CCc1ccc(-c2nc(CS(=O)CC(=O)NCCc3ccccc3)c(C)o2)cc1 (centres undefined)
65: CC(C(=O)O)n1nc(-c2ccccc2)c2cc(Cl)ccc21 (centres undefined)
66: CN(C)c1cc(C(F)(F)F)nc2c(Cl)c(C(C)(C)C)nn12
Compound,61,62,63,64,65,66
Sa growth 42C,.,101,.,109,62,92
Sa growth 42C second temp,.,100,.,92,68,86
HCMV UL50-53 inh,5,-15,-8,-15,0,-27
GIV-Gai inh,105,.,101,107,94,100

67: COC(=O)c1ccc(CSc2nccn2C)cc1
68: CCCCN(C)CCCNC(=O)c1ccc2nc(N3CCCCC3)sc2c1
69: Cc1cccc(NC(=O)c2cnc3sccn3c2=O)c1
70: CCOC(=O)c1cc(=O)cc(C(=O)OCC)o1
71: COc1ccc(-c2nc(CS(=O)CC(=O)NCCc3ccc(Cl)cc3)c(C)o2)cc1OC (centres undefined)
72: CCOc1ccc(Nc2c(S(=O)(=O)c3ccccc3)cnc3ccccc23)cc1
Compound,67,68,69,70,71,72
Sa growth 42C,90,105,85,93,115,94
Sa growth 42C second temp,82,90,88,94,82,80
HCMV UL50-53 inh,-12,-19,.,0,-17,-5
GIV-Gai inh,.,97,103,96,105,105

73: COc1cccc(OC)c1OCCNCC1COc2ccccc2O1 (centres undefined)
74: COc1ccc(NC(=O)CSc2c3c(nc4ccccc24)CCC3)c(OC)c1
75: O=C1Nc2ccccc2S/C1=C/c1ccc(C(=O)N2CCOCC2)cc1
76: C=CCc1ccccc1OCCSc1nc(-c2ccccc2F)nc2cc(=O)[nH]n12
77: O=C(CSc1nc2ccccc2n1CC(=O)N1CCCC1)N1CCCCC1
78: COc1ccc(N2C(=O)/C(=C\C=C\c3ccccc3)SC2=S)cc1
Compound,73,74,75,76,77,78
Sa growth 42C,.,84,96,99,99,107
Sa growth 42C second temp,.,84,84,76,86,93
HCMV UL50-53 inh,-8&-25,6,-111,.,-25,.
GIV-Gai inh,107,106,102,98,104,106

79: Cc1nn(CCCC(=O)NC2CCCc3ccccc32)c(=O)c2nccn12 (centres undefined)
80: CCOC(=O)c1ccccc1NC(=O)C=C(C)C
81: Cc1c(-c2ccccc2)cc2ccccn12
82: O=C1CCCc2cc(S(=O)(=O)N3CCCC(C(=O)Nc4ccc(F)c(Cl)c4)C3)ccc2N1 (centres undefined)
83: COC(=O)c1ccc(CNCC2COc3ccccc3O2)o1 (centres undefined)
84: CCCCSCCCNC(=O)C1CCC(CNS(=O)(=O)c2ccccc2)CC1 (centres undefined)
Compound,79,80,81,82,83,84
Sa growth 42C,98,102,4.3*,93,118,102
Sa growth 42C second temp,84,99,3.0*,70,102,85
HCMV UL50-53 inh,-11,-5,-45,.,13,.
GIV-Gai inh,97,104,.,107,.,105

85: Cc1ccc(CN(Cc2ccco2)C(=O)COc2ccc(Cl)cc2)o1
86: COc1ccc(NC(=O)c2sc3nc4c(cc3c2N)CCCCCC4)c(OC)c1
87: O=S(=O)(Cc1nc(-c2ccc(Cl)cc2)cs1)c1ccc(Cl)cc1
88: CCOC(=O)c1[nH]c2sc(C)c(C)c2c1N
89: O=C(c1ccccc1)c1cc(Br)ccc1O
90: CCC1(C)N([O-])C(C)=C(c2ccccc2)[N+]1=O (centres undefined)
Compound,85,86,87,88,89,90
Sa growth 42C,98,97,106,83,93,92
Sa growth 42C second temp,86,80,102,66,94,89
HCMV UL50-53 inh,-25,-26,0,-14,-22,.
GIV-Gai inh,103,110,104,83*,102,104

91: COC(=O)c1cc(S(=O)(=O)N(CC(C)C)CC(C)C)c[nH]1
92: O=C(CN1CCN(Cc2ccc(Cl)cc2)C1=O)NCC1COc2ccccc2O1 (centres undefined)
93: COc1ccc(CNC(=O)C2CCN(S(=O)(=O)c3ccc4nc5c(c(C(=O)O)c4c3)CCCC5)CC2)cc1
94: Cc1cccc(CCn2c(=O)c3ccccc3n(Cc3ccccc3C)c2=O)c1
95: O=C(O)c1ccc(Nc2ncnc3scc(-c4ccccc4)c23)cc1
96: COc1ccc2nc3oc(C(=O)NC4CCN(Cc5ccccc5)CC4)cc3cc2c1
97: CCC(C(=O)N1CCN(c2ccccc2)CC1)n1c(C)c2cnn(-c3ccccc3)c(=O)c2c1C (centres undefined)
Compound,91,92,93,94,95,96,97
Sa growth 42C,96,122,98,91,91,109,120
Sa growth 42C second temp,80,80,93,90,80,79,76
HCMV UL50-53 inh,-7,.,.,-20,.,-83,-20
GIV-Gai inh,99,105,104&103,105,104,97,102

Screening data: PubChem, ICCB-Longwood Screening Facility, Harvard Medical School
